Beta2AR agonist: human beta-2 adrenergic receptor agonism by FAP | P07550 | Am2.2-beta2AR cells, FAP receptor internalization, flow cytometry; reference of the scale not given here | response, % (no concentration beside the values) | 340,000 compounds, 0.43% hits | AID 504454;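 active = response above a set limit, near 3 SD of response in nonfluorescent compounds, cut at about 42% in these data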;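 also: stock transfer was 100 nL into about 11 µL; a reference agonist was the positive control; negative values mostly stem from fluorescent compounds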
Target sequence (P07550 whole entry, looked up): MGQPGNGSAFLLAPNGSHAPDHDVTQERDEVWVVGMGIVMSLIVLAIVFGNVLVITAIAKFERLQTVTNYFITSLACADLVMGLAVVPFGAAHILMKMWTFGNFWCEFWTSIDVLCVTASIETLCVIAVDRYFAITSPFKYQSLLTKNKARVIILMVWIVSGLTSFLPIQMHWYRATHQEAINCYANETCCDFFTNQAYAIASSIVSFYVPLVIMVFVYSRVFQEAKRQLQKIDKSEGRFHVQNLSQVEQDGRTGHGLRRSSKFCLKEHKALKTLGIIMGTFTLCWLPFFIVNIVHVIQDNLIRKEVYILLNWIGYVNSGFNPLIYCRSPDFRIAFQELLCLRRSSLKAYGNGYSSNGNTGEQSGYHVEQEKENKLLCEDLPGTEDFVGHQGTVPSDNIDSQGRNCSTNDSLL
UCH37 inh: inhibitors of human deubiquitinating enzyme UCH37. inhibition, % (concentration not given with the values). Q9Y5K5. 330,000 compounds, 0.33% hits. purified proteasome/UCH37, Ub-AMC cleavage fluorescence;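 active = mean of two replicates above 20%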;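 also: 0% = compound-free wells with enzyme and 100% = wells lacking proteasome; stock transfer was 100 nL into about 20 µL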
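Material: human UCH37 enzyme supplied as purified proteasome complex. Measure: % inhibition of Ub-AMC cleavage fluorescence. Medium: pH 7.4 Tris-HCl (50 mM) with ovalbumin, ATP-MgCl2, DTT. Times: 30 min preincubation with enzyme, 25 min cleavage at room temperature. Detection: AMC fluorescence intensity at 355/460 nm.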
E coli growth: blocks Escherichia coli growth. 330,000 compounds, 0.21% hits. OD600, 23 h; active compounds read low. OD600 absorbance (concentration not given with the values);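 active = OD600 absorbance below the run mean of sample wells minus 3.6 SD, in any replicate, cut at about 0.56 in these data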;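 also: stock transfer was 300 nL into about 60 µL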
LANA-H2A inh: blocks KSHV LANA binding to histone H2A/H2B | 320,000 compounds, 0.6% hits | AID 2629 | inhibition, % (concentration not given with the values) | cell-free LANA-H2A/H2B peptide, fluorescence polarization | Q9QR71; in the data active = inhibition mostly above about 10%, no sharp cut-off; inactive = mostly below about 6.7%;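 also: stock transfer was 7.5 nL into about 10 µL; 0% = median of vehicle wells and 100% = median of positive control wells; one replicate is shown; the record names a cut of 25% in any replicate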
ALR inh: inhibitors of human sulfhydryl oxidase ALR. P55789. purified ALR, DTT oxidation, H2O2 HRP-luminol luminescence. inhibition, % (test concentration not listed). 290,000 compounds, 3.8% hits;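 active = mean and each replicate at 75% or more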;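 also: stock transfer was 7.5 nL into about 7.5 µL; 0% = neutral wells and 100% = wells with inactivated enzyme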
Target sequence (P55789 whole entry, looked up): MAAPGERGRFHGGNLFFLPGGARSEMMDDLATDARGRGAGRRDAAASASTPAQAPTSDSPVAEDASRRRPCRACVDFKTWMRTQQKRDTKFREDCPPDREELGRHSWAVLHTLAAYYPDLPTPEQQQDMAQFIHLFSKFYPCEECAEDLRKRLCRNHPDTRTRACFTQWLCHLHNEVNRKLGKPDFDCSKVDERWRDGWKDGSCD
FGF22 binding: FGF22 (human) thermal shift binding. calls only at 9.99 µM. AID 651658. Q9HCT0. recombinant FGF22 thermal shift, SYPRO orange fluorescence; percent of sucrose octasulfate shift, DMSO zero. 340,000 compounds, 1.5% hits;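 active = melting point raised past a set limit in the mean and every replicate; three in four hits are not shown here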
HNF4A DNA FP: change in binding of human HNF4 alpha to DNA | activity change, % at 10 µM | P41235 | 360,000 compounds, 0.3% hits | HNF4a-FITC DNA binding, fluorescence polarization, 1 h; in the data active = activity change above about 30%, passing the limit was not always enough;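 also: controls were the assay level and a saturating level of protein; the project sought stronger binding though the title names inhibitors; some compounds called inactive have numbers as strong as hits; positive values seem to mean higher polarization but the record does not say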
Target sequence (P41235 whole entry, looked up): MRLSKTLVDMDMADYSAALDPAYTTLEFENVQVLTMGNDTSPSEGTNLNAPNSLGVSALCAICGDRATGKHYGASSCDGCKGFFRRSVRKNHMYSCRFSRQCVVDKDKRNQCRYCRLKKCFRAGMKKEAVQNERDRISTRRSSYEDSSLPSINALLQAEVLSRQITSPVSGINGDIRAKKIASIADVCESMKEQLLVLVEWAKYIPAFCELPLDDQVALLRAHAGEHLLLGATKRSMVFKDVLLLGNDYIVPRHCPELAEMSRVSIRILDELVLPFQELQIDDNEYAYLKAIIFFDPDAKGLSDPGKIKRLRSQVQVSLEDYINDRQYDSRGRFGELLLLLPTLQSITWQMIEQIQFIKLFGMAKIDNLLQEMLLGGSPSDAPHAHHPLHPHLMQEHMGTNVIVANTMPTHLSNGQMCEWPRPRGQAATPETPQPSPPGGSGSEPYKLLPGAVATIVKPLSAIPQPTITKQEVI
An asterisk follows results filed as active.

How did COc1ccc(C(=O)Nc2cccc(C)n2)cc1S(=O)(=O)N1CCCc2ccccc21 do in these assays?
Beta2AR agonist: 9; UCH37 inh: -1.8; E coli growth: 0.73; FGF22 binding: inactive; HNF4A DNA FP: 0.6

How did Cc1nc2ccccc2c(=O)n1/N=C/c1ccc(O)cc1O do in these assays?
Beta2AR agonist: -13; LANA-H2A inh: 1.5; ALR inh: 43; HNF4A DNA FP: 1.1

What do the screens show for `Cc1ccsc1C(=O)NCC(C)(C)N1CCOCC1`?
Beta2AR agonist: 0; UCH37 inh: 0.8; E coli growth: 0.66; LANA-H2A inh: -0.1; ALR inh: -3; FGF22 binding: inactive; HNF4A DNA FP: -0.6

What do the screens show for `Cc1ccccc1OCCn1cnc2cc([N+](=O)[O-])ccc2c1=O`?
Beta2AR agonist: 11; UCH37 inh: 1.8; E coli growth: 0.71; LANA-H2A inh: -1.6; ALR inh: -60; FGF22 binding: inactive; HNF4A DNA FP: 3.9

What do the screens show for `COCC1CCN(C(=O)c2ccc(OC)c(OC3CCN(C(C)C)CC3)c2)CC1`?
Beta2AR agonist: 3; UCH37 inh: 2.4; E coli growth: 0.71; LANA-H2A inh: 6.6; ALR inh: 2; FGF22 binding: inactive; HNF4A DNA FP: 0.2

Results for Cc1ccc(S(=O)(=O)Nc2c(C)nc3nc[nH]n3c2=O)c(C)c1 ?
Beta2AR agonist: 0; UCH37 inh: 4.3; E coli growth: 0.69; LANA-H2A inh: -0.1; ALR inh: 10; FGF22 binding: inactive; HNF4A DNA FP: 0.6

What do the screens show for `CC(C)c1ncc(S(=O)(=O)c2ccc(C(F)(F)F)cn2)c(N)n1`?
Beta2AR agonist: -7; UCH37 inh: 1.4; E coli growth: 0.67; LANA-H2A inh: 2.8; FGF22 binding: inactive; HNF4A DNA FP: -0.6

How did COc1ccc(NC(=O)N(C)C[C@H]2Oc3ccc(NC(=O)Cn4cnnn4)cc3C(=O)N([C@H](C)CO)C[C@@H]2C)cc1 do in these assays?
Beta2AR agonist: -4; UCH37 inh: 0.1; E coli growth: 0.75; LANA-H2A inh: 3.4; ALR inh: -7; FGF22 binding: inactive; HNF4A DNA FP: -2.8

What do the screens show for `COc1cc(C2c3c([nH]c(=O)[nH]c3=O)Nc3ccc4ccccc4c32)ccc1O` (centres undefined)?
Beta2AR agonist: -5; UCH37 inh: -21; E coli growth: 0.66; LANA-H2A inh: 3.3; ALR inh: 10; HNF4A DNA FP: 0.8

What do the screens show for `Cc1ccc(/C=C2\SC(N)=NC2=O)s1`?
Beta2AR agonist: 1; UCH37 inh: 5.2; E coli growth: 0.7; LANA-H2A inh: 1.2; ALR inh: -2; FGF22 binding: inactive; HNF4A DNA FP: 5.4

The list goes on, starting with the last 5 of the part before.
Results for Cc1ccc(S(=O)(=O)Nc2c(C)nc3nc[nH]n3c2=O)c(C)c1 ?
Beta2AR agonist: 0; UCH37 inh: 4.3; E coli growth: 0.69; LANA-H2A inh: -0.1; ALR inh: 10; FGF22 binding: inactive; HNF4A DNA FP: 0.6

What do the screens show for `CC(C)c1ncc(S(=O)(=O)c2ccc(C(F)(F)F)cn2)c(N)n1`?
Beta2AR agonist: -7; UCH37 inh: 1.4; E coli growth: 0.67; LANA-H2A inh: 2.8; FGF22 binding: inactive; HNF4A DNA FP: -0.6

How did COc1ccc(NC(=O)N(C)C[C@H]2Oc3ccc(NC(=O)Cn4cnnn4)cc3C(=O)N([C@H](C)CO)C[C@@H]2C)cc1 do in these assays?
Beta2AR agonist: -4; UCH37 inh: 0.1; E coli growth: 0.75; LANA-H2A inh: 3.4; ALR inh: -7; FGF22 binding: inactive; HNF4A DNA FP: -2.8

What do the screens show for `COc1cc(C2c3c([nH]c(=O)[nH]c3=O)Nc3ccc4ccccc4c32)ccc1O` (centres undefined)?
Beta2AR agonist: -5; UCH37 inh: -21; E coli growth: 0.66; LANA-H2A inh: 3.3; ALR inh: 10; HNF4A DNA FP: 0.8

What do the screens show for `Cc1ccc(/C=C2\SC(N)=NC2=O)s1`?
Beta2AR agonist: 1; UCH37 inh: 5.2; E coli growth: 0.7; LANA-H2A inh: 1.2; ALR inh: -2; FGF22 binding: inactive; HNF4A DNA FP: 5.4

How did O=C(O)C1CCN(C(=O)c2csc(-c3ccc4c(c3)CCO4)n2)CC1 do in these assays?
Beta2AR agonist: -2; UCH37 inh: 0.2; E coli growth: 0.68; LANA-H2A inh: -4.5; ALR inh: -1; FGF22 binding: inactive; HNF4A DNA FP: 4.1

How did O=C(CCc1nc2ccccc2c(=O)[nH]1)N1CCN(C/C=C/c2ccccc2)CC1 do in these assays?
Beta2AR agonist: -1; UCH37 inh: -1.8; E coli growth: 0.69; LANA-H2A inh: 0.1; HNF4A DNA FP: 3.6

What do the screens show for `CC(C)(C)C(=O)COC(=O)c1cccc(NC(=O)c2ccco2)c1`?
Beta2AR agonist: -5; UCH37 inh: 0.4; E coli growth: 0.63; LANA-H2A inh: -1.4; ALR inh: -2; HNF4A DNA FP: -1.7

Results for C/C(Cn1nnc2ccccc21)=N\OC(=O)c1ccccc1C ?
Beta2AR agonist: -4; LANA-H2A inh: -3.6; ALR inh: -2; HNF4A DNA FP: -2.9

What do the screens show for `O=C(CC1C(=O)Nc2ccccc2N1CC(=O)N1CCCC1)Nc1ccc(Br)cc1` (centres undefined)?
Beta2AR agonist: 1; UCH37 inh: -0.9; E coli growth: 0.72; LANA-H2A inh: 2.3; ALR inh: 98*; FGF22 binding: inactive; HNF4A DNA FP: 0.4

What do the screens show for `O=C1COc2ccc(C(=O)COC(=O)CCSc3ccccc3)cc2N1`?
Beta2AR agonist: 13; UCH37 inh: 4.3; E coli growth: 0.68; LANA-H2A inh: 0.1; ALR inh: 0; FGF22 binding: inactive; HNF4A DNA FP: 3.3

Results for CCCCCNC(=O)C1CCC(Cn2c(=S)[nH]c3ccccc3c2=O)CC1 (centres undefined) ?
Beta2AR agonist: 4; UCH37 inh: -1.0; E coli growth: 0.69; LANA-H2A inh: -0.2; ALR inh: 4; FGF22 binding: inactive; HNF4A DNA FP: -1.7

What do the screens show for `CCCCOc1nc(N2CCOCC2)nc(C)c1[N+](=O)[O-]`?
Beta2AR agonist: -7; UCH37 inh: 6.9; E coli growth: 0.66; LANA-H2A inh: 5.3; ALR inh: 0; FGF22 binding: inactive; HNF4A DNA FP: -2.4

What do the screens show for `CCCCn1nc2cc(C(=O)NC3CCc4ccccc43)ccc2c1OCC` (centres undefined)?
Beta2AR agonist: 1; UCH37 inh: -21; E coli growth: 0.65; LANA-H2A inh: 5.5; ALR inh: -2; FGF22 binding: inactive; HNF4A DNA FP: 2.3

What do the screens show for `CCOC(=O)C1=NNC(C(=O)c2ccc(Cl)cc2)C1c1ccccc1` (centres undefined)?
Beta2AR agonist: 5; LANA-H2A inh: -2.3; ALR inh: -1; FGF22 binding: inactive; HNF4A DNA FP: 4.4

Results for Cc1cc(C)cc(N(CC(=O)Nc2ccc(-c3nc4ccc(C)cc4s3)cc2)S(C)(=O)=O)c1 ?
Beta2AR agonist: 4; UCH37 inh: -250; E coli growth: 0.71; LANA-H2A inh: 0.1; ALR inh: -7; HNF4A DNA FP: -2.1

Results for O=C1OC(Nc2nc3ccccc3s2)c2ccccc21 (centres undefined) ?
Beta2AR agonist: 11; UCH37 inh: 4.3; E coli growth: 0.68; LANA-H2A inh: -2.1; ALR inh: 61; HNF4A DNA FP: 1.6

What do the screens show for `NC(=O)Oc1cccc(OC(N)=O)c1`?
Beta2AR agonist: 5; UCH37 inh: 1.0; E coli growth: 0.67; LANA-H2A inh: -2.0; ALR inh: 20; FGF22 binding: inactive; HNF4A DNA FP: -1.6

Results for Cc1cc(F)ccc1S(=O)(=O)Nc1ccccc1C(=O)Nc1ncn[nH]1 ?
Beta2AR agonist: 16; UCH37 inh: -292; E coli growth: 0.69; LANA-H2A inh: -1.9; ALR inh: 4; HNF4A DNA FP: 0.1

How did COC(=O)C(Cc1c[nH]c2ccccc12)NC(=O)C(=O)c1c[nH]c2ccccc12 (centres undefined) do in these assays?
Beta2AR agonist: 25; UCH37 inh: 6.8; E coli growth: 0.66; LANA-H2A inh: -2.7; ALR inh: 18; FGF22 binding: inactive; HNF4A DNA FP: 6.2

What do the screens show for `COc1cc(C2=CN(Cc3ccccc3)CCC2=O)cc(OC)c1OC`?
Beta2AR agonist: 0; UCH37 inh: 4.1; E coli growth: 0.7; LANA-H2A inh: 2.1; ALR inh: 15; FGF22 binding: inactive; HNF4A DNA FP: 0.2

How did Cc1cc(C[n+]2ncsc2N)c2ncccc2c1 do in these assays?
Beta2AR agonist: -1; UCH37 inh: 2.9; E coli growth: 0.71; LANA-H2A inh: -2.8; ALR inh: -15; FGF22 binding: inactive; HNF4A DNA FP: -0.1

What do the screens show for `CN1CCN(C(=O)c2ccc3c(=O)n(Cc4ccco4)c(=S)[nH]c3c2)CC1`?
Beta2AR agonist: -1; UCH37 inh: 4.7; E coli growth: 0.7; LANA-H2A inh: -2.4; HNF4A DNA FP: -2.7

How did Cn1c(SCC(=O)NCC2CCCO2)nnc1-c1cccc(NC(=O)c2ccccc2F)c1 (centres undefined) do in these assays?
Beta2AR agonist: -9; UCH37 inh: 0.0; E coli growth: 0.68; LANA-H2A inh: 2.6; ALR inh: -7; FGF22 binding: inactive; HNF4A DNA FP: -2.1

What do the screens show for `CC[n+]1ccc(C)c2cc(S(=O)C(F)(F)F)ccc21` (centres undefined)?
Beta2AR agonist: 4; UCH37 inh: -13; E coli growth: 0.72; LANA-H2A inh: 3.1; ALR inh: -30; HNF4A DNA FP: -1.6

What do the screens show for `COc1cc(NC(=O)c2ccc(C)cc2C)ccc1NC(=O)c1cc2ccccc2o1`?
Beta2AR agonist: -5; UCH37 inh: inactive; E coli growth: 0.76; LANA-H2A inh: 3.7; ALR inh: -10; FGF22 binding: inactive; HNF4A DNA FP: -1.4

How did Cc1cc(C)cc(COn2ccnc2)c1 do in these assays?
Beta2AR agonist: 2; UCH37 inh: 1.8; E coli growth: 0.67; LANA-H2A inh: -2.3; ALR inh: -9; HNF4A DNA FP: -1.6

What do the screens show for `O=C(c1ccc2c(c1)OCCO2)N1CCCC(CNS(=O)(=O)c2cccs2)C1` (centres undefined)?
Beta2AR agonist: -6; UCH37 inh: 2.3; E coli growth: 0.64; LANA-H2A inh: 11; ALR inh: -28; FGF22 binding: inactive; HNF4A DNA FP: -1.8

How did CC1(c2ccccc2)NC(=O)N(CC(=O)N(c2ccccc2)C2CCS(=O)(=O)C2)C1=O (centres undefined) do in these assays?
Beta2AR agonist: 0; UCH37 inh: 2.5; E coli growth: 0.68; LANA-H2A inh: 4.2; ALR inh: -4; FGF22 binding: inactive; HNF4A DNA FP: 8.0

Results for O=C(Nc1cc([N+](=O)[O-])ccc1O)c1cccc(C(=O)Nc2cc([N+](=O)[O-])ccc2O)c1 ?
Beta2AR agonist: 10; UCH37 inh: 17; E coli growth: 0.67; LANA-H2A inh: 5.7; ALR inh: -14; FGF22 binding: inactive; HNF4A DNA FP: -3.1

How did Cc1cccc(C)c1Nc1nnc(SCC(=O)NCc2ccco2)s1 do in these assays?
Beta2AR agonist: -32; UCH37 inh: 3.6; E coli growth: 0.72; LANA-H2A inh: 0.1; ALR inh: 3; HNF4A DNA FP: -0.9

How did COc1cc(/C=C(/C#N)C(=O)Nc2cc(C(F)(F)F)ccc2Cl)ccc1OCC(=O)Nc1cccc(C(F)(F)F)c1 do in these assays?
Beta2AR agonist: 10; UCH37 inh: -95; E coli growth: 0.69; FGF22 binding: inactive; HNF4A DNA FP: 17

Results for Cc1cc(NC(=O)CSCC(=O)N(C)Cc2ccc(Cl)c(Cl)c2)no1 ?
Beta2AR agonist: 3; UCH37 inh: 2.3; E coli growth: 0.73; LANA-H2A inh: -3.0; ALR inh: -2; FGF22 binding: inactive; HNF4A DNA FP: 4.0

How did COc1ccc(C2=NN(C(=O)CCC(=O)O)C(c3ccc([N+](=O)[O-])cc3)C2)cc1 (centres undefined) do in these assays?
Beta2AR agonist: -4; UCH37 inh: 1.0; E coli growth: 0.65; LANA-H2A inh: 0.7; ALR inh: -7; FGF22 binding: inactive; HNF4A DNA FP: -0.1

High-throughput results from PubChem BioAssay.

An excerpt; count on the stated rates, not on these rows.
